# T cruzi inh – blocks replication of Trypanosoma cruzi | T. cruzi beta-gal in NIH3T3, luminescence, 90 h | inhibition, % (no concentration beside the values) | hit rate 1.4% among 300,000;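 active means mean inhibition across valid replicates above about 55%, limit read from the data; inconclusive means mean below that limit but half or more replicates reach it; inactive means mean below it, under half of replicates reach it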;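 further: signal also drops with host cell toxicity which is not excluded here; 0% = plate median of DMSO wells and 100% = zero luminescence signal; higher percent means less beta-gal luminescence so fewer parasites; stock transfer was 50 nL into about 50 µL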
# Bfl-1 A1 inh – inhibitors of the anti-apoptotic protein A1, read as caspase activation. MEF A1-2A-BIM cells, Caspase-Glo 3/7 luminescence, 3 h; percent of clofoctol response, vehicle zero. caspase activation, % (no concentration beside the values). hit rate 0.066% among 330,000. AID 2462;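 active means over half of replicate activation scores above 10%, or exactly half above 10 with the replicate mean above 10; inconclusive means replicate mean below 10 yet half the replicates above 10; inactive means over half of replicates below 10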;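 further: wells of about 30 µL received 50 nL stock; many hits fall short of the cut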
# Calb FLC – affects C. albicans growth with fluconazole; C. albicans CaCi-2 (fluconazole-resistant clinical isolate) + fluconazole, Alamar Blue growth, 48 h; growth inhibition, % (no concentration beside the values); hit rate 0.57% among 300,000;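 active means most replicates above 75%; inconclusive means exactly half above 75%; inactive means most below 75%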;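 further: all wells also contain fluconazole at 8 µg/ml as a sub-toxic cotreatment; 0% = median of DMSO wells and 100% = median of geldanamycin control wells; wells of about 8 µL received 7.5 nL stock; the first replicate is given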
# RanGTP-Impb inh – inhibitors of RanGTP-importin-beta interaction, primary screen, biochemical, FRET, CFP-Ran, YFP-importin-beta, homogeneous. inhibition, % (concentration not given with the values). AID 2216. cell-free CFP-Ran/YFP-importin-beta FRET ratio. hit rate 1.1% among 300,000;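 active means most replicates above 15%; inconclusive means exactly half above 15%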;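 further: 0% = DMSO wells and 100% = Ran loaded with GDP instead of GTP; wells of about 40 µL received 100 nL stock; the first replicate is given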
# Vif A3G – HIV-1 Vif–A3G interaction blockers – biochemical, TR-FRET, GST-Vif 1-94, biotin-A3G peptide, dose response retest, primary screen (AID 1117319); hit rate 0.57% among 260,000; TR-FRET GST-Vif / biotin-A3G peptide binding; higher % means a stronger effect; test concentration not given here; strong numbers were not always called active; inhibition, %; hits with a dose series show IC50 in µM;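 active means above the screen mean plus three standard deviations and confirmed in dose response; inconclusive means results disagree or hit not tested in dose response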;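 further: Vif residues 1-94 fused to GST binding biotinylated APOBEC3G peptide 110-148; 0% = full assay without inhibitor and 100% = GST in place of GST-Vif; retest series ran down from 100 µM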
# AF4-AF9 inh – blocks AF4 peptide binding to human AF9 | inhibition, % at 10 µM | AlphaScreen, biotin-AF4 peptide binding to FLAG-AF9 | AID 651704 | P42568 | hit rate 0.47% among 350,000;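 active means every replicate reaching a set inhibition limit, whatever the replicate mean, cut at about 25% in these data; inconclusive means mean inhibition reaches that limit but some replicates miss it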;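 further: 0% = plate neutral control median and 100% = total signal loss; the record names both 10 and 1 µM as test concentration; the first replicate is given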
# Target sequence (P42568 whole entry, looked up): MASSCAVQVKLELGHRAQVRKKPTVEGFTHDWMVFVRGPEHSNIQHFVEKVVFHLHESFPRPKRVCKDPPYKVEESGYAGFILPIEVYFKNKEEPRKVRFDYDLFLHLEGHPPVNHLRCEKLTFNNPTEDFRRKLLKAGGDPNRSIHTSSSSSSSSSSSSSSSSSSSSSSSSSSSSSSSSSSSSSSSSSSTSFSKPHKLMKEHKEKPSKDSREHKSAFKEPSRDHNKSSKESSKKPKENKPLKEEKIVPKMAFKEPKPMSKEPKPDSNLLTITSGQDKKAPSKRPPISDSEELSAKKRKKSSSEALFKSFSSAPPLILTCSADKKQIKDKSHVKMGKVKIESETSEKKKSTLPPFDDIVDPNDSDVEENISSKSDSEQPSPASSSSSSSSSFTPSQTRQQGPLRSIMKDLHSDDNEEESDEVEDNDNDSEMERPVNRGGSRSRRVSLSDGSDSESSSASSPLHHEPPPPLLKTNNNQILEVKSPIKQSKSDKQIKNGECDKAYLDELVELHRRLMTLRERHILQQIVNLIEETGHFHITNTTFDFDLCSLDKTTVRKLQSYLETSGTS
# Ecoli rRNA inh – selective bacterial rRNA inhibition in E. coli; E. coli WT GFP vs humanized-ribosome RFP mutants, fluorescence, 24 h; hits give low values; DMSO median 0, no signal -100; GFP signal change (wild-type ribosome), % (no concentration beside the values); hit rate 1.6% among 350,000; AID 720706;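 active means significant combined selectivity score with lowered wild-type GFP, culture density cut under 30%, mutant RFP and density less affected; inactive means any of these conditions unmet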; further: one replicate is shown; some compounds called inactive have numbers as strong as hits
# Beta cell apopt – blocks beta cell apoptosis; protection from apoptosis, % (no concentration beside the values); hit rate 0.8% among 300,000; INS-1E cytokine-induced death, ATP luminescence, 48 h; percent of positive-control rescue, neutral wells zero;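 active means all replicates at 75% or more, or half of them and the mean; inconclusive means half reach 75% but not the mean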;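 further: 0% = cytokine-treated negative control wells and 100% = positive control rescue; higher means more ATP so stronger rescue from cytokine killing; wells of about 40 µL received 100 nL stock; the first replicate is given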
# Ecoli rRNA inh OD600 – recorded beside Ecoli rRNA inh, whose call it bears; OD600 change, %; measured here: OD600 growth;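 optical density of the mix in the first replicate; 0 = DMSO median and -100 = no signal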
# Ecoli rRNA inh RFP – further read-out of Ecoli rRNA inh, marked with its call; RFP signal change, %; measured here: RFP humanized mutant strains;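 first replicate; 0 = DMSO median and -100 = no signal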
# * hit, by the source's call; ? = inconclusive; / = no result given; & = joins results of further samples. A portion of the library; count on the stated rates, not on these rows.
SMILES,T cruzi inh,Bfl-1 A1 inh,Calb FLC,RanGTP-Impb inh,Vif A3G,AF4-AF9 inh,Ecoli rRNA inh,Ecoli rRNA inh OD600,Ecoli rRNA inh RFP,Beta cell apopt
CCN(CC)N=Nc1ccc(S(N)(=O)=O)cc1,-5,1.2,0,-0.1,/,-0.4,16,8,0.3,-11
COc1ccccc1C(=O)Nc1nnc(SCC(=O)Nc2ccc3c(c2)oc2ccccc23)s1,22,-5.5,-22,2.1,-12%,/,/,/,/,-1
C=C(C(=O)O)C(CCCCCC)C(=O)O (stereo unspecified),-22,0.1,2,0.6,/,-1.2,/,/,/,/
COc1ccc(C(C)=O)cc1CSc1nc2cc(C(=O)O)ccc2c(=O)n1Cc1ccccc1,0,-0.1,15,0.3,2%,2.8,1,-5,-5.5,-1
Cc1cc(=O)oc2cc(OCC(=O)N3CCc4ccccc4C3)ccc12,-5,0.5,-4,3.7,?,/,/,/,/,-4
O=C(NCc1nnc(SCc2ccccc2)n1-c1ccc(F)cc1)C12CC3CC(CC(C3)C1)C2,41,0.3,-22,3.4,/,5.2,-52,-74,-17,-5
CC(=O)c1ccc(OCC(=O)NC(=O)NC2CCCCC2)cc1,3,-0.5,-3,0.4,1%,-0.8,3,4,1.4,4
COc1ccc(C(=O)NC(=S)NNC(=O)c2ccc(NC(=O)C(C)C)cc2)cc1,-24,0.1,34,4.1,27%,/,/,/,/,12
COc1ccc(OC)c(NC(=O)c2nc(S(=O)(=O)Cc3ccccc3)ncc2Cl)c1,10,0.9,6,-1.9,/,1.4,-3,-15,-4.3,80*
CCN(CC)S(=O)(=O)c1cc(C(=O)N=c2sccn2C)ccc1OC,-2,-1.3,5,2.4,/,-4.0,7,7,0.9,-2
CC(C)(C)c1ccc(S(=O)(=O)N2CCSC2)cc1,13,-0.1,1,-0.1,-5%,/,/,/,/,-14
COc1ccc(-c2[nH]ncc2CNCC(C)(C)N2CCOCC2)cc1F,12,-0.3,-4,-2.9,?,-0.3,16,12,-3.3,-3
O=C(Nc1ccccc1Br)C1CCN(S(=O)(=O)c2cccs2)CC1,/,0.0,/,/,3%,-3.4,-16*,-27*,-3.2*,-3
Cc1cc(C)n(CCSCC(=O)O)n1,-19,-0.4,-13,0.9,2%,6.0,15,16,-0.7,-4
Cc1ccc2c(c1)sc1ncc(NC(=O)c3ccc(F)cc3)c(=O)n12,-9,0.1,19,-6.6,33%,/,/,/,/,-6
Nc1c(C(=O)Nc2ccccc2)c2nc3ccccc3nc2n1-c1ccc(O)cc1,59*,0.4,15,?,9%,-62,4,5,4.5,9
CCCn1nnc(NC(=O)c2ccco2)n1,-22,2.1,6,?,32%,-3.0,22,11,1.7,0
O=S(=O)(Nc1ccccc1)c1ccc(Oc2ncc(C(F)(F)F)cc2Cl)cc1,21,-0.2,-1,3.9,0%,/,/,/,/,-1
CCc1nnc(NC(=O)CCC(=O)Nc2ccc(Cl)cc2)s1,6,0.4,0,5.5,1%,1.5,7,4,-1.9,-11
COc1cc(CC(NC(C)=O)C(=O)NC2CCN(C(=O)c3ccc(C)cc3)CC2)cc(OC)c1 (stereo unspecified),-4,1.2,-8,3.3,0%,-8.5,6,15,-1.6,-4
Cc1ccccc1C(=O)NNC(=O)CN1C(=O)c2ccccc2C1=O,-15,-0.4,-6,-2.3,/,0.2,/,/,/,-13
O=C(NCCS(=O)(=O)N1CCN(c2ccc(F)cc2)CC1)c1ccco1,-13,3.0,-2,-1.4,-6%,-3.9,-1,-1,0.3,/
Cc1cc(NC(=O)C(Cl)c2ccccc2)no1 (stereo unspecified),-4,-0.2,0,-1.8,6%,2.5,-14,-12,0.6,-10
CCCOP(=O)(c1ccccc1)c1ccccc1,-19,0.1,3,-0.7,/,0.5,3,0,-3.2,-4
C/C(=N/NC(=O)C1CC1(c1ccccc1)c1ccccc1)c1ccco1 (stereo unspecified),-2,0.1,12,-1.5,1%,1.5,0,-9,2.6,4
CN(C)c1ccc(C(=O)OCC(=O)c2cccs2)cc1,0,-4.4,-24,-1.4,10%,-5.4,1,3,9.6,1
CCOC(=O)N1CCN(C(=O)CSCC(=O)Nc2nc(-c3ccccc3)cs2)CC1,-4,0.1,9,?,14%,/,/,/,/,/
O=C(CSc1ccccc1)Nc1ccc(N2CCN(c3ccccc3)CC2)c(F)c1,-9,0.7,-26,2.1,0%,/,/,/,/,1
O=C(CSc1nc2ccccc2s1)NCC1CCCO1 (stereo unspecified),-5,-0.7,-4,0.4,/,-2.4,0,4,-0.3,-2
Cc1ccc(C)n1NC(=O)c1ccc(O)cc1,-2,-0.3,-6,-2.4,4%,/,-15,-13,2.8,-3
CCCOC1CCCN(C(=O)CCCn2nnnc2CN2CCOCC2)C1 (stereo unspecified),-26,0.4,-3,1.4,/,0.8,13,10,1.8,0
Cc1nn(C(C)C(=O)NCc2ccccc2)c(C)c1[N+](=O)[O-] (stereo unspecified),16,-0.1,-3,-4.8,-5%,/,/,/,/,-6
CSCC[C@H](NC(=O)CCn1nnc2ccccc2c1=O)C(=O)O,-4,0.5,-7,4.3,2%&-5%,/,/,/,/,-1
CCOC(=O)C1CCN(C(=O)c2sccc2Cl)CC1,/,-0.1,23,-0.2,/,3.0,4,5,-0.5,-3
N#Cc1ccccc1Cn1c(=O)n(-c2ccc(CC(=O)NCc3ccco3)cc2)c(=O)c2sccc21,0,0.7,7,?,-1%,-4.4,1,0,0.8,-2
Cc1cccc(C)c1NC(=O)CNC(=O)Cc1ccccc1[N+](=O)[O-],-15,?,-2,0.2,/,-12,6,23,-0.5,/
Cc1cc(C)n2nc(SC(C)C(=O)NC3CCCCC3C)nc2n1 (stereo unspecified),-6,-0.3,7,-0.9,1%,0.6,1,7,-2.2,2
CCOC(=O)c1ccc(CSc2ncn[nH]2)o1,-3,-0.1,-3,4.9,1%,/,/,/,/,/
CC(=O)c1cnc2cc(-c3ccc(Cl)cc3)nn2c1C,-7,-2.7,-2,30,-9%,/,/,/,/,/
CC(C)N(C(=O)c1ccccc1-c1ccccc1)C(C)C,-8,-0.5,1,-2.8,0%,/,/,/,/,-2
O=C(NCc1cccnc1)C1CCN(C(=O)c2ccc(Cl)cc2Cl)CC1,3,-1.5,-7,0.1,8%,/,/,/,/,0
O=C(Nc1cc2c3c(c1)CC(=O)N3CCC2)c1ccccc1F,-4,-0.9,11,0.3,1%,-3.2,-1,-3,-1.1,-4
Cc1ccccc1N1CCN(C(=O)C2CCCCC2)CC1,26,0.2,/,4.3,28%,/,/,/,/,7
Cc1cc(=O)oc2c1ccc1oc(/C(=N/O)c3ccccc3)c(C)c12,18,0.3,5,2.7,-3%,/,/,/,/,10
CCN(CC(=O)NCc1ccc(Cl)cc1)S(=O)(=O)c1ccc(NC(C)=O)cc1,-11,0.0,1,5.7,8%,0.6,-18,-22,-3.5,1
COc1ccc(-c2cc3ccccc3n2CC(O)CN2CCC(C)CC2)cc1 (stereo unspecified),4,0.1,-15,-1.6,3%,15,8,11,-3.4,5
Cc1ccc(S(=O)(=O)NC2CCCCCCC2)cc1,1,0.1,-12,3.5,/,-4.1,7,9,2.7,4
COc1ccc(C2CC(c3cccs3)=NN2C(=O)c2ccc(Br)o2)cc1 (stereo unspecified),34,0.5,3,-4.6,/,/,/,/,/,10
COc1ccc(C2(C)NC(=O)N(CC(=O)Nc3ccc(Br)cc3F)C2=O)cc1OC (stereo unspecified),-5,-0.6,7,1.2,/,2.4,-6,-13,1.2,-6
O=C(CCCCCn1c(=S)[nH]c2ccc(N3CCOCC3)cc2c1=O)NCc1ccccc1Cl,26,2.4,-1,-2.0,-7%,-1.0,-10,-8,-1.6,8
O=c1c(Cc2ccccc2)c(O)c2cccc3c4c(n1c23)CCCC4,/,0.1,1,0.1,-6%,0.2,-19*,-7.7*,4.9*,2
CCCCN(C(=O)COc1ccc(NC(C)=O)cc1)C1CCS(=O)(=O)C1 (stereo unspecified),-13,0.7,6,2.4,/,-1.1,24,10,1.0,1
CCOC(=O)C1=C(COC(=O)c2sccc2C)NC(=O)NC1C (stereo unspecified),/,0.3,/,/,-11%,0.3,-2,-3,0.9,-5
Cc1n[nH]c(C)c1CCCCOc1ccccc1,-18,-0.4,-21,3.2,11%,0.5,-40,-57,-13,3
O=C(O)c1cccnc1SCC(=O)C12CC3CC(CC(C3)C1)C2,-1,0.3,1,-5.5,6%,3.7,-21,-19,-3.1,-12
C[C@@H]1CN([C@H](C)CO)C(=O)c2cccc(NC(=O)NC3CCCCC3)c2O[C@@H]1CN(C)C(=O)Nc1ccc(C(F)(F)F)cc1,/,-0.6,/,/,/,4.4,-2,12,0.0,-1
COCCN(C(=O)c1csnn1)C(C(=O)NC1CCCCC1)c1ccccc1F (stereo unspecified),16,0.1,-3,2.2,/,-0.1,2,4,1.5,-2
CCCCCCOc1ccc(N2C(=O)CC(SC(=NCC)NCC)C2=O)cc1 (stereo unspecified),2,-2.6,?,-0.2,-1%,-1.1,-13,4,5.8,-8
CC(=O)Nc1cccc(NC(=O)CCN2C(=O)c3ccccc3S2(=O)=O)c1,4,-0.9,9,3.6,7%,-11,-14*,6.1*,-4.7*,2
COc1ccc(C)cc1NC(=O)c1nn(C)cc1Br,4,0.3,1,-1.8,1%,8.0,-15*,2.4*,3.3*,3
# Next part:
SMILES,T cruzi inh,Bfl-1 A1 inh,Calb FLC,RanGTP-Impb inh,Vif A3G,AF4-AF9 inh,Ecoli rRNA inh,Ecoli rRNA inh OD600,Ecoli rRNA inh RFP,Beta cell apopt
CN1CCN(CC(=O)Nc2sc3c(c2C(=O)Nc2ccccc2)CCCC3)CC1,25,0.3,-2,-0.5,-3%,5.1,3,14,2.1,2
CCN(CC)CCSc1nnc2c3ccccc3n(Cc3ccccc3)c2n1,69*,3.5,-10,?,/,10,-6,-13,-1.8,-1
CCc1ccccc1Nc1nc(N)nc(COC(=O)C2=COCCO2)n1,/,-0.9,/,/,-15%,0.7,6,0,-2.8,2
O=C(CN(c1ccccc1)S(=O)(=O)c1ccc(F)cc1)NC1CCCCCC1,6,0.4,0,6.2,/,-14,0,9,-2.9,0
Cc1cccc(-c2noc(CCC(=O)NCC3CCCO3)n2)c1 (stereo unspecified),-5,/,1,-2.4,8%,/,/,/,/,/
CC1CCCC(C)N1C(=O)CSc1nnc(COc2cccc3cccnc23)o1 (stereo unspecified),5,1.2,-1,1.4,2%,-2.1,-10,-16,-2.8,/
O=C(CNC(=O)c1ccco1)OCc1cccc(Cl)c1,-9,-0.4,0,0.4,?,/,/,/,/,-11
Cc1cc(NC(=O)/C=C/c2ccccc2Cl)no1,-152,-3.3,2,-1.0,-5%,/,/,/,/,4
Cc1ccccc1NC(=O)Cc1ccccc1,-10,0.8,-4,-2.5,0%,/,/,/,/,1
